Screens (PubChem)
HSD17B inhib: blocks hydroxysteroid 17-beta dehydrogenase activity; Q99714; recombinant HSD17B10, NADH fluorescence kinetic; many of its hits are not listed in these tables; Potency, µM (doses to about 57.1 µM), without a hit: at the top dose activity change, negative = inhibition, actives largely listed as inhibitors; hit rate 7.6% among 75,000; active means well fitted inhibition curve with a large enough effect; inconclusive means small, poorly fitted or top-dose-only effect; inactive means no such curve, though single readings can be large or run the other way;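 further: the protocol describes HADH2 (HSD17B10) and not the HSD17B4 of the title; nearly all actives have a fitted effect of over 70% in size; most hits overshoot -100% by far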
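Enzyme plus compound, 15 min room temperature; substrate mix added (NAD+ 1 mM, beta-hydroxybutyryl-CoA 90 uM final); plates read kinetically for NADH fluorescence. HADH2 was His-tagged, E. coli-derived, 20 nM.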
The depositor's hits bear a star; [ ] = dose if it differs, or a comment. On the % scale 0 is the no-effect control and ±100 the full control effect; potency means the concentration at half of the fitted maximal effect. The list is partial; the hit share may differ from the screen's.

Results for COc1ccc(NC2C=CS(=O)(=O)C2)c(OC)c1 (stereo not drawn) ?
HSD17B inhib: 5%

Results for O=S(=O)(NCc1cccs1)c1cccc2cccnc12 ?
HSD17B inhib: 8%

What do the screens show for `COc1ccc(OCCSc2nnc(-c3ccccc3)n2N)cc1`?
HSD17B inhib: 7%

Results for CCN(CC)C(=O)c1c[nH]c2ccc(S(=O)(=O)Nc3cc(C)cc(C)c3)cc2c1=O ?
HSD17B inhib: 32µM*

How did O=Cc1ccc(B(O)O)cc1 do in these assays?
HSD17B inhib: 9%

Results for C=CCSC[C@@H]1Nc2cc(Cl)c(S(N)(=O)=O)cc2S(=O)(=O)N1 ?
HSD17B inhib: 2%[25.6 µM]

Results for Nc1nc(SCc2ccccc2[N+](=O)[O-])c2[nH]cnc2n1 ?
HSD17B inhib: 4%[11.4 µM]

How did COc1cccc(NC(=O)c2cn(C)c(=O)c3cc(OC)c(OC)cc23)c1 do in these assays?
HSD17B inhib: 2%

Results for CCOC(=O)c1c2c(n3ccccc13)C(=O)c1ccccc1C2=O ?
HSD17B inhib: -2%[11.4 µM]

How did Cc1cc(C)n(-c2nc3c(c(=O)[nH]c(=O)n3C)n2C(C)C)n1 do in these assays?
HSD17B inhib: 12%

Results for N/C(=N\S(=O)(=O)c1cccs1)c1ccccc1 ?
HSD17B inhib: 6%

How did N#Cc1c(SCC(=O)N2CCOCC2)nsc1SCC(=O)N1CCOCC1 do in these assays?
HSD17B inhib: 4%

How did CC(Sc1nnnn1C)C(=O)Nc1ccccc1-c1ccccc1 (stereo not drawn) do in these assays?
HSD17B inhib: 10%

How did COc1ccc2c(c1)c1nc(SCC(C)C)n(CCO)c(=O)c1n2C do in these assays?
HSD17B inhib: 16µM*

Results for c1ccc(CCn2nnnc2C(c2cccs2)N2CCOCC2)cc1 (stereo not drawn) ?
HSD17B inhib: 5%

How did CC(C)COP(=O)(c1ccc(N(C)C)cc1)C(O)c1ccccc1F (stereo not drawn) do in these assays?
HSD17B inhib: 2%

What do the screens show for `CCOC(=O)CC(=O)Nc1ccc(C(=O)OCC)cc1`?
HSD17B inhib: -2%

What do the screens show for `CC1CCN(C(=O)c2ccc(NC(=O)C3CCCO3)cc2)CC1` (stereo not drawn)?
HSD17B inhib: -1%

What do the screens show for `CCN1CCN(/C=N/c2nc3c(s2)CCCC3)CC1`?
HSD17B inhib: -10%

Results for COc1ccc(CCN(C)C(=O)CN2C(=O)c3ccccc3S2(=O)=O)cc1OC ?
HSD17B inhib: 12%

What do the screens show for `CCOC(=O)N1CCC(NC(=O)CS(=O)(=O)Cc2nc(-c3cccc(OC)c3)oc2C)CC1`?
HSD17B inhib: -1%

What do the screens show for `CCn1nc(C)c(NC(=O)c2cc(Br)ccc2Cl)c1C`?
HSD17B inhib: 8%

Results for c1ccc2c(c1)ncn2CCC1CCCCC1 ?
HSD17B inhib: -2%

Results for CN1CCN(/C=N/c2c(C#N)cnn2-c2ccccc2)CC1 ?
HSD17B inhib: -10%

How did Cc1cc(C)cc(-n2cc3c(=O)n(C)c(=O)n(C)c3c2)c1 do in these assays?
HSD17B inhib: 3%

Results for CC12CCC(=O)N1C(C(=O)OCC(=O)Nc1sccc1C#N)CS2 (stereo not drawn) ?
HSD17B inhib: -20%

What do the screens show for `CCOC(=O)CSc1nc(N)c(C#N)c(-c2ccc(OCC)cc2)c1C#N`?
HSD17B inhib: inconclusive

What do the screens show for `Cc1nn(Cc2ccccc2)c(C)c1NC(=O)CSc1nnc(-c2cc(Cl)ccc2O)n1C`?
HSD17B inhib: 0%

Results for Cc1nc2ccccc2c(=O)n1/N=C/c1ccc(N(C)C)cc1 ?
HSD17B inhib: 9%

How did CSc1cccc(NC(=O)c2c(Cl)cnn2C)c1 do in these assays?
HSD17B inhib: 10%

Results for O=C(O)c1ccc(-c2ccc(O)c(F)c2)cc1 ?
HSD17B inhib: 25µM*

What do the screens show for `Cc1ccc(CNC(=O)CCS(=O)(=O)c2cccc3nonc23)cc1`?
HSD17B inhib: -2%

Results for c1ccc2nc3c(nc2c1)[nH]c1ccccc13 ?
HSD17B inhib: -19%

How did O=C(CC(C(=O)N1CCc2ccccc21)n1ccnc1)N1CCc2ccccc2C1 (stereo not drawn) do in these assays?
HSD17B inhib: -7%

How did CC(=O)c1c(C)[nH]c(C(=O)NCCN2CCC(C)CC2)c1C do in these assays?
HSD17B inhib: 5%

Results for CCc1ccc(OCc2ccc(C(=O)NCc3ccccn3)o2)cc1 ?
HSD17B inhib: -5%

How did CC1CCc2c(nc3ncnn3c2N2CCN(c3ccccc3F)CC2)C1 (stereo not drawn) do in these assays?
HSD17B inhib: -16%

Results for COc1cc(C(Nc2ccccn2)c2ccc3ccc(C)nc3c2O)cc(OC)c1O (stereo not drawn) ?
HSD17B inhib: 13µM*

How did Fc1ccc(Cn2nnnc2CN2CCN(C3CCCCC3)CC2)cc1 do in these assays?
HSD17B inhib: 6%

How did Nc1nc(-c2cccc(NS(=O)(=O)c3ccccc3)c2)cs1 do in these assays?
HSD17B inhib: 0%

12 entries out of the list, arranged by number of heavy atoms, lowest first.
How did O=Cc1ccc(B(O)O)cc1 do in these assays?
HSD17B inhib: 9%

Results for c1ccc2nc3c(nc2c1)[nH]c1ccccc13 ?
HSD17B inhib: -19%

What do the screens show for `CCN1CCN(/C=N/c2nc3c(s2)CCCC3)CC1`?
HSD17B inhib: -10%

How did CC(=O)c1c(C)[nH]c(C(=O)NCCN2CCC(C)CC2)c1C do in these assays?
HSD17B inhib: 5%

What do the screens show for `CC1CCN(C(=O)c2ccc(NC(=O)C3CCCO3)cc2)CC1` (stereo not drawn)?
HSD17B inhib: -1%

Results for CCOC(=O)c1c2c(n3ccccc13)C(=O)c1ccccc1C2=O ?
HSD17B inhib: -2%[11.4 µM]

How did COc1ccc2c(c1)c1nc(SCC(C)C)n(CCO)c(=O)c1n2C do in these assays?
HSD17B inhib: 16µM*

How did Fc1ccc(Cn2nnnc2CN2CCN(C3CCCCC3)CC2)cc1 do in these assays?
HSD17B inhib: 6%

What do the screens show for `CCOC(=O)CSc1nc(N)c(C#N)c(-c2ccc(OCC)cc2)c1C#N`?
HSD17B inhib: inconclusive

How did O=C(CC(C(=O)N1CCc2ccccc21)n1ccnc1)N1CCc2ccccc2C1 (stereo not drawn) do in these assays?
HSD17B inhib: -7%

Results for COc1cc(C(Nc2ccccn2)c2ccc3ccc(C)nc3c2O)cc(OC)c1O (stereo not drawn) ?
HSD17B inhib: 13µM*

What do the screens show for `CCOC(=O)N1CCC(NC(=O)CS(=O)(=O)Cc2nc(-c3cccc(OC)c3)oc2C)CC1`?
HSD17B inhib: -1%

Continuation:
How did CCc1nnc(NCC(=O)N2CCc3ccccc32)s1 do in these assays?
HSD17B inhib: inconclusive

Results for CC1CCCCC1NC(=O)Cn1ncc2ccccc21 (stereo not drawn) ?
HSD17B inhib: -3%

How did COc1ccccc1CC(=N)N1C[C@@H]2C(=O)CCC(c3ccccc3)(c3ccccc3)[C@@H]2C1 do in these assays?
HSD17B inhib: -1%

Results for CC(=O)Nc1ccc(NC(C)=O)s1 ?
HSD17B inhib: -7%

Results for O=C(CSc1ncn(-c2ccccc2)n1)N1CCc2ccccc21 ?
HSD17B inhib: -7%

Results for Cc1ccc(/C(C#N)=C/c2cccc([N+](=O)[O-])c2)cc1 ?
HSD17B inhib: -2%[11.4 µM]

Results for O=C(Oc1cccc2cccnc12)c1cccs1 ?
HSD17B inhib: -7%

What do the screens show for `COc1cccc(-c2nnn(CCC(=O)O)n2)c1`?
HSD17B inhib: 5%

What do the screens show for `O=C(CSc1nnc(COc2ccc(Cl)cc2)o1)N1CCN(c2ccccc2)CC1`?
HSD17B inhib: 0%

Results for Cc1nc(N)nc2ccccc12 ?
HSD17B inhib: 3.2µM*

What do the screens show for `Cc1ccc2c(c1)c1c3n2CCCNC3CCC1` (stereo not drawn)?
HSD17B inhib: -25%

Results for COc1cc2cc(CN(CCN3CCCC3)C(=O)Nc3ccccc3Cl)c(=O)[nH]c2cc1OC ?
HSD17B inhib: 25µM*

Results for COc1ccccc1NC(=O)CSc1nc2ccccc2c(=O)n1CCNC(C)=O ?
HSD17B inhib: 4%

How did O=C(O)CN(CC(=O)O)CC(=O)O do in these assays?
HSD17B inhib: 0%

Results for COc1cccc(N2CCN(Cc3coc4c(Cl)cc(Cl)cc4c3=O)CC2)c1 ?
HSD17B inhib: -9%

How did CCCCN(C)C(=O)CCCCn1c(=O)[nH]c2cc(OCC)c(OCC)cc2c1=O do in these assays?
HSD17B inhib: 25µM*

Results for O=[N+]([O-])c1ccccc1N=Nc1c(O)[nH]c2ccc(S(=O)(=O)O)cc12 ?
HSD17B inhib: -11%[11.4 µM]

Results for COc1cc(C(=O)Nc2ccc3c(c2)OCO3)ccc1-n1cnnn1 ?
HSD17B inhib: 3%

Results for Cc1cc(Br)ccc1OCc1nc(-c2cccnc2)no1 ?
HSD17B inhib: 3%

How did Cc1noc(C)c1CSc1nnc(-c2ccccc2)n1Cc1ccco1 do in these assays?
HSD17B inhib: -7%

What do the screens show for `COCCNC(=O)[C@@]1(C)C=C[C@@H](Cc2ccccc2)N1C(=O)c1ccccc1`?
HSD17B inhib: -5%

What do the screens show for `Cc1cccc(NC(=O)c2cc(NC(=O)C3CC=CCC3C(=O)O)ccc2N2CCOCC2)c1` (stereo not drawn)?
HSD17B inhib: 7%

How did Cc1nc2ncnn2c(N2CCCC(C(=O)Nc3ccc4c(c3)CCC4)C2)c1C (stereo not drawn) do in these assays?
HSD17B inhib: 12%

Results for O=C(Cn1cnc2c(nnn2Cc2ccccc2F)c1=O)NCC1CCCO1 (stereo not drawn) ?
HSD17B inhib: 4%

Results for O=C(OCc1nnc(-c2ccccc2)o1)c1ccc2ccccc2n1 ?
HSD17B inhib: -2%

How did O=C(c1ccco1)N1CCC2(CC1)CN(c1ccccn1)C2 do in these assays?
HSD17B inhib: 32µM*

What do the screens show for `CCN(Cc1ccccc1)C(=O)CSc1nc(C)cc(C)c1C#N`?
HSD17B inhib: -2%

Results for Nc1cccc(OCc2nc(N)nc(N)c2-c2ccc(Cl)cc2)c1 ?
HSD17B inhib: 5%[11.4 µM]

What do the screens show for `CS(=O)(=O)N1CCC2(CCN(c3ccncc3)CC2)CC1`?
HSD17B inhib: 1%

Results for COc1cc(C)c(C#N)c(OC)n1 ?
HSD17B inhib: 2%

Results for CC12/C(=N/O)C3C4CC5C3/C(=N/O)C1C5C42 (stereo not drawn) ?
HSD17B inhib: 6%

How did CCCc1nnc(NC(=O)Cn2c(=O)oc3ccccc32)s1 do in these assays?
HSD17B inhib: -24%

What do the screens show for `CC(=O)c1cnc(Nc2nc(C)c3cccc(C)c3n2)nc1C`?
HSD17B inhib: 12%

What do the screens show for `O=C(Nc1cccc(C(F)(F)F)c1)C1CCCN(S(=O)(=O)c2cnc[nH]2)C1` (stereo not drawn)?
HSD17B inhib: -11%

What do the screens show for `CCCCC(=O)Nc1ccc(C(N)=O)cc1`?
HSD17B inhib: 4%

What do the screens show for `CC1CCCCN1C(=O)Cn1c(=O)oc2ccccc21` (stereo not drawn)?
HSD17B inhib: -6%

What do the screens show for `Cc1cc(C)n(S(=O)(=O)c2ccc(Cl)c(Cl)c2Cl)n1`?
HSD17B inhib: 2%

Results for CC1Cc2ccccc2N1C(=O)c1cnc2ccccn2c1=O (stereo not drawn) ?
HSD17B inhib: -11%

How did CN(CC(=O)NCc1ccco1)S(=O)(=O)c1ccc2c(c1)n(C)c(=O)c(=O)n2C do in these assays?
HSD17B inhib: -22%

What do the screens show for `COCCCNC(=O)c1ccccc1NS(=O)(=O)c1ccc(C)cc1`?
HSD17B inhib: 32µM*

Results for COCCn1c(C)cc(C(=O)COC(=O)c2cc3c(s2)CCC3)c1C ?
HSD17B inhib: 25µM*

What do the screens show for `CC[C@@H](C)[C@H](NS(=O)(=O)c1ccc(C)cc1)C(=O)N1CCC(C(=O)NCC(=O)O)CC1`?
HSD17B inhib: 15%

How did CCCCCCCC1=CC2=CC(=O)C(C)(O)C(=O)C2=CN1CCCC (stereo not drawn) do in these assays?
HSD17B inhib: 2%[11.4 µM]

Results for Cc1nc(NCc2ccco2)c(C#N)c2c1COC(C)(C)C2 ?
HSD17B inhib: 32µM*

How did Cc1cc2cc(CN(Cc3cccs3)Cc3nnnn3CC3CCCO3)c(=O)[nH]c2cc1C (stereo not drawn) do in these assays?
HSD17B inhib: inconclusive

Results for CCOC(=O)N1CCC(NS(=O)(=O)c2ccc3c(c2)C(C)(C)C(=O)N3C)CC1 ?
HSD17B inhib: -2%

How did CCC(CC)C(=O)Nc1c2cnn(-c3ccccc3)c2nc(=O)n1-c1ccccc1 do in these assays?
HSD17B inhib: 3%

What do the screens show for `c1cc2nncn2nc1N1CCCC1`?
HSD17B inhib: 1%

How did C/C=C/OC(=O)NC(c1cccc(C)c1)[C@@]1(C(=O)OCC)CCCC1=O (stereo partly drawn) do in these assays?
HSD17B inhib: -4%[11.4 µM]

How did COCCNC(=O)c1ccc2ccccc2n1 do in these assays?
HSD17B inhib: 8%

How did Cc1ccc(SCc2nc(-c3ccccc3)no2)cc1 do in these assays?
HSD17B inhib: -4%

Results for CCOC1OC2C(CO)OC(n3cnc4c(N)ncnc43)C2O1 (stereo not drawn) ?
HSD17B inhib: 2%

What do the screens show for `CC1CC(C(F)(F)F)n2ncc(C(=O)O)c2N1` (stereo not drawn)?
HSD17B inhib: 14%

Results for CCCOc1ccc([C@@H]2C3CN(C(=O)OCC)CC=C3C(C#N)=C(N)C2(C#N)C#N)cc1OC (stereo partly drawn) ?
HSD17B inhib: 3%

How did CN(Cc1ccccc1)Cn1ccnc1 do in these assays?
HSD17B inhib: 7%[11.4 µM]

How did CCN1C(=O)[C@H]2[C@@H]3[C@H](O)C=CC(=O)[C@H]3CC[C@H]2C1=O do in these assays?
HSD17B inhib: 6%[11.4 µM]

How did CCCS(=O)(=O)c1c(S(=O)(=O)CCC)c2cc(CC)ccn2c1C(=O)OC do in these assays?
HSD17B inhib: -15%
